CDC25B CDK2 inh: human CDC25B-CDK2/CyclinA binding inhibition | P30305+P24941 | HTRF CDC25B-CDK2/CyclinA binding, anti-His/anti-Flag; hits give high values | z-score (no concentration beside the values) | 94,000 tested, 0.72% active;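 also: score is relative to mean and SD of negative controls; strong numbers were not always called active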
TAR Tat displ: HIV-1 TAR-Tat binding disruption; HIV-1 TAR RNA, Tat peptide displacement FRET; hits give high values; z-score (test concentration not listed); 100,000 tested, 0.6% active; AID 1259389;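 also: score is relative to mean and SD of negative controls; some compounds called inactive have numbers as strong as hits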
Active calls of the source: *; / = not tested or not shown.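 The calls were made as follows: active = z-score from 3 up in half or more of its runs; inactive = the rest.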

Results follow in this order: CDC25B CDK2 inh	TAR Tat displ
Cc1ccc(NC(=O)c2ccc3nn(CC(=O)Nc4ccc(C)c(Cl)c4)c(=O)n3c2)cc1
    -0.67	-1.4
O=C(NC1CCCCC1)C1CCN(c2cnccn2)CC1
    0.11	1.8
O=c1ccc(S(=O)(=O)c2ccc(Cl)cc2)n[nH]1
    -0.03	1.1
Cn1c(=O)n(-c2ccc(Cl)cc2)c(=O)c2c3c(sc21)COC(C)(C)C3
    -1.5	0.29
O=C(CSc1oc(-c2ccco2)nc1S(=O)(=O)c1ccccc1)NC1CCCCC1
    -4.2	0.02
O=C1C(=O)N(Cc2cccnc2)C(c2ccccc2Cl)/C1=C(\O)c1ccc(Cl)cc1 (stereo unspecified)
    -1.4	1.2
N/C(CCSc1ccc(Cl)cc1)=N\OC(=O)Nc1ccc(Cl)cc1
    -1	/
COc1ccc(-c2cc(Nc3ccc(Br)cc3)nc(C)n2)cc1
    1.1	-1.9
O=C(CSc1cn(CC(=O)N2CCCC2)c2ccccc12)Nc1ccc2c(c1)OCCO2
    /	-1.8
CCc1nn(CCCC(=O)NC2CCCCC2C)c(=O)c2cc3occc3n12 (stereo unspecified)
    -1.7	-0.82
Cc1ccccc1-c1noc(C2CCCN(S(=O)(=O)c3ccc(C(C)C)cc3)C2)n1 (stereo unspecified)
    /	0.47
CC1CCCC(NC(=O)Cn2ncc3c([nH]c4ccccc43)c2=O)C1C (stereo unspecified)
    /	-1.4
COCCNC(=O)C1(C)CCC(=O)N1CCc1cccs1 (stereo unspecified)
    /	1.3
CCOC(=O)NNC(=O)NC
    -2.4	/
O=C(Cn1cnc2c(oc3ccccc32)c1=O)Nc1cc(F)ccc1F
    /	1.2
CCn1cc(S(=O)(=O)c2ccc(C)cc2)c(=O)c2cc(F)c(N3CCN(C)CC3)cc21
    /	0.18
COC(=O)c1cc2c(s1)-c1ccccc1OC2
    1.8	1.2
O=C(Nc1c2c(nn1-c1cccc(Cl)c1)CS(=O)(=O)C2)C1CCCC1
    /	0.73
c1ccc(N2CCN(c3ncc4c(n3)CCN(Cc3ccc5c(c3)OCCO5)C4)CC2)cc1
    /	0.58
CC1CCCCC1NC(=O)c1cc(S(=O)(=O)N2CCc3ccccc32)cn1C (stereo unspecified)
    1	0.95

Remaining list, next part:
Results follow in this order: CDC25B CDK2 inh	TAR Tat displ
CCS(=O)(=O)c1nc(S(=O)(=O)c2ccc(Cl)cc2)c(NCc2ccccn2)s1
    -0.07	0.05
Cn1c(SCC(=O)Nc2ccc3c(c2)OCO3)nnc1-c1cc2ccccc2o1
    /	2.8
Cc1cccc(OCc2cc(=O)n3nc(-c4ccco4)sc3n2)c1C
    -0.31	35*
Cc1nc2sccn2c(=O)c1S(=O)(=O)NC1CCCC1
    -0.67	1.9
CC(C)C1CNc2cc(Cl)ccc2O1 (stereo unspecified)
    -0.79	1.1
CCN1CCN(C(=O)c2cc3c(s2)-c2ccccc2OC3)CC1
    0.08	-1.5
Cc1ccccc1OCc1nc(-c2ccncc2)no1
    0.66	/
CCCC(C)N1CCN(S(=O)(=O)c2cc(-c3onc(C)c3C)ccc2OC)CC1 (stereo unspecified)
    /	0.74
CCN(CC)CCNC(=O)c1oc2c(c1C)-c1[nH]ncc1CC2
    0.31	-2.5
CC1CC(=O)N(CC(=O)NCC2CCCO2)c2cc(S(=O)(=O)N3CCCCC3)ccc2S1 (stereo unspecified)
    /	1.6
CC(C)Cc1nc(SCc2cc(=O)n3c4c(sc3n2)CCCC4)n[nH]1
    /	-0.93
Cc1nn(Cc2nn[nH]n2)c(C)c1Br
    -1.4	/
CC(=O)Oc1ccc(Br)cc1C1=NN(C(C)=O)C(Cn2nc(C)cc2C)O1 (stereo unspecified)
    /	1.3
CCc1nn2c(=O)cc(CSc3nnc(-c4ccc(OC)cc4)n3C)nc2s1
    /	-0.39
O=C(CSc1nccn1Cc1ccc(F)cc1)Nc1nccs1
    /	-5.7
CC1(C)CC(=O)C=C(NCCN2CCNCC2)C1
    0.02	-0.5
CCCCCCNc1ncnc2sc(C)c(C)c12
    0.3	0.66
O=C1C2N=NN(Cc3c(F)cccc3Cl)C2C(=O)N1c1ccc(Cl)cc1 (stereo unspecified)
    -1.3	1.1
CCCCCOC(=O)C1=C(C)Nc2nnnn2C1c1ccc(Br)cc1 (stereo unspecified)
    -1.2	1.9
O=C(CSc1ccc(-c2ccncc2)nn1)Nc1ccc(F)c(F)c1
    /	0.9

Other records
Results follow in this order: CDC25B CDK2 inh	TAR Tat displ
Nc1nc2nc(-c3ccc(OCc4ccccc4)cc3)cc(C(F)(F)F)n2n1
    -0.11	1.4
Cc1nn(Cc2ccc(F)cc2)c(C)c1NC(=O)c1noc(C(C)C)c1[N+](=O)[O-]
    0.16	1.9
Cc1nc(CC(=O)Nc2nc(C)c(C)s2)cs1
    -0.97	0.36
COc1ccc(-c2nc(NCc3ccc(F)cc3)c3ccccc3n2)cc1
    /	0.71
Cc1ccc2snc(C(=O)O)c2c1
    -0.53	2
COc1ccc(-c2cc(NCc3ccc(F)cc3)n3cnnc3n2)cc1
    -0.54	0.63
CC1=C(C(=O)OC(C)C)C(c2ccccc2Cl)C2=C(CC(c3ccccc3)CC2=O)N1 (stereo unspecified)
    -0.32	0.53
CC(=O)N1CCc2cc(S(=O)(=O)C(C)CC(=O)NC3CCCCC3)ccc21 (stereo unspecified)
    /	0.71
Cc1csc2ncc(C(=O)Nc3ccon3)c(=O)n12
    -0.45	/
CCc1nc(C)cn1S(=O)(=O)c1cc2c(cc1C)N(C(C)=O)CCO2
    /	0.67
COc1ccc(OC)c(C(=O)CN2C=NS(=O)(=O)c3ccccc32)c1
    /	1.6
CCN1C(=O)c2cccc3c(NC(=O)c4ccc(Cl)s4)ccc1c23
    16*	/
CCOC(=O)c1c(-c2ccccc2)csc1NC(=O)C12CC3CCC1(C)C3(C)CO2 (stereo unspecified)
    -0.43	/
COC(=O)CSc1ncnc2c1sc1nc(-c3ccccc3)c3c(c12)CC(C)(C)OC3
    -0.62	0.41
COc1ccc(-c2onc(C)c2C)cc1S(=O)(=O)Nc1cc(C)cc(C)c1
    /	1.8
O=C1C2C(c3ccc(Cl)cc3)OC3(C(=O)c4ccccc4C3=O)C2C(=O)N1C1CCCCC1 (stereo unspecified)
    0.6	-0.26
CC(C)Oc1ccc(C(Nc2ccccn2)c2ccc3cccnc3c2O)cc1 (stereo unspecified)
    -1	/
O=C(Nc1ccccc1Br)c1cccn1-c1nnc(N2CCCC2)s1
    /	0.39
CC(C)(C)C(=O)c1cn(CC(=O)N2CCCC2)c2ccccc12
    -1.5	0.97
O=S(=O)(Nc1ccc2c(c1)N(S(=O)(=O)c1ccc(F)cc1)CCC2)c1ccc(Cl)cc1
    /	0.13

Further structures:
Results follow in this order: CDC25B CDK2 inh	TAR Tat displ
NC(=O)C1CCN(C(=O)c2[nH]c3ccccc3c2Sc2ccc(Cl)cc2)CC1
    -2	2.2
COc1ccccc1NCc1nc2nc(C)cc(C)n2n1
    -1.2	1.1
CN1CCC(=C2c3ccccc3C=Cc3ccccc32)CC1
    -0.34	0.12
CC(C)CNC(=O)NCCn1cnc2cc(C(=O)N(C)C)ccc21
    /	-1.4
Cc1nnc2c(N3CCN(c4ccccc4F)CC3)nc3ccccc3n12
    -0.41	0.73
Cc1ccc(NC(=O)C2C3C=CC4(O3)C2C(=O)N(C2CC2)C4C(=O)NC2CCCCC2)cc1 (stereo unspecified)
    -0.89	0.53
COc1ccc(OC)c(Nc2nn3c(=O)c4cc5c(cc4nc3s2)OCO5)c1
    -0.12	0.69
O=C(CSc1nc2sc3c(c2c(=O)[nH]1)CCCC3)NCCCO
    -3.9	/
CC(C)Cn1cc(NC(=O)N2CCC(C(N)=O)(N3CCCCC3)CC2)c2ccccc2c1=O
    /	0.38
CCc1nn(CC(=O)N2CCC(C)CC2)c(=O)c2cc3occc3n12
    0.51	3.4
Cc1ccc(Cn2c(=O)n(CCC(C)C)c(=O)c3cccnc32)cc1
    0.44	0.46
COc1ccc(CCNC(=S)Nc2ccc(S(=O)(=O)N3CCCCC3)cc2)cc1OC
    -0.88	/
COc1ccc(Cl)c(OC)c1C(=O)NC(=O)Nc1nc(C)nc(C)n1
    -1.9	/
Cn1c(-n2cccc2)c(-c2c(-c3cccc(Cl)c3)[nH]c3c2c(=O)[nH]c(=O)n3C)c(=O)[nH]c1=O
    -2	-0.32
O=C(COc1ccc(SC(F)(F)F)cc1)NNS(=O)(=O)c1cc(Cl)ccc1Cl
    -1.3	/
COC(=O)c1c(N2C(=O)CC(Sc3ccccc3C(=O)O)C2=O)sc2c1CCCC2 (stereo unspecified)
    -2.9	-1.6
COc1ccc(Oc2nnc(C)c3nnn(Cc4ccc(F)cc4)c23)cc1
    1.7	0.58
Cc1cc(C)cc(NC(=O)C2=Cc3cc(Br)ccc3OC=C2)c1
    -2.9	0.24
CC(C)CC(NC(=O)Cc1ccsc1)C(=O)NNS(=O)(=O)c1ccc(Cl)cc1 (stereo unspecified)
    -1.5	/
CCOC(=O)c1c(NC(=O)c2ccc(I)cc2)sc2c1CCCC2
    -0.8	/

Two entries picked at random from the list so far, as already listed:
Results follow in this order: CDC25B CDK2 inh	TAR Tat displ
O=C(CSc1nc2sc3c(c2c(=O)[nH]1)CCCC3)NCCCO
    -3.9	/
CC(=O)Oc1ccc(Br)cc1C1=NN(C(C)=O)C(Cn2nc(C)cc2C)O1 (stereo unspecified)
    /	1.3

Later entries.
Results follow in this order: CDC25B CDK2 inh	TAR Tat displ
CCOC(=O)c1nc2ccccc2n(C(C)=O)c1=O
    19*	0.02
Cc1cc(C)cc(N(CC(=O)Nc2ccc(F)cc2)C2=NC3CS(=O)(=O)CC3S2)c1 (stereo unspecified)
    -0.93	0.88
CCc1ccc(CN(C(=O)c2cc(-c3ccc4c(c3)OCCO4)on2)C2CCS(=O)(=O)C2)cc1 (stereo unspecified)
    -5	1.8
CCn1ncc(CNC(=O)CCSc2nc(-c3ccco3)cc(C(F)(F)F)n2)c1C
    -2.1	-0.56
Cc1ccc(NS(=O)(=O)c2cc(-c3csc(C)n3)ccc2C)c(Br)c1
    /	2.1
O=C(O)CN1C(=O)SC(CC(=O)Nc2nccs2)C1=O (stereo unspecified)
    0.14	/
COc1ccc(OC)c(NC(=O)Nc2nnc(N3C(C)CCCC3C)s2)c1 (stereo unspecified)
    -0.95	1.3
Cc1ccc(-c2c(C(F)(F)F)[nH]n3c(=O)cc(C)nc23)cc1
    -0.52	0.28
COc1cc(C2CC(=O)Nc3nc(N)[nH]c(=O)c32)ccc1OCc1ccc(F)cc1 (stereo unspecified)
    0.75	1.9
COc1ccc(-c2noc(CSc3nnc(-c4ccncc4)n3C)n2)cc1
    -1.9	-0.11
CC(=O)N1c2ccc(S(=O)(=O)N3CCCCC3)cc2CC1C(=O)NCCN(C)C (stereo unspecified)
    /	-0.59
Brc1ccc(OCC2C[N+]34CCO[B-]3(OCC4)O2)cc1 (stereo unspecified)
    -1	/
O=C(Nc1cccc2[nH]ccc12)C1CCCCC1
    -0.18	/
CCCNC(=O)N1CCN(c2nc(C(C)C)c3c(c2C#N)CC(C)(C)OC3)CC1
    -1.6	0.37
CCN(C(=O)c1noc2c1CSc1ccccc1-2)c1cc(OC)ccc1OC
    -1.6	-1.4
Clc1cc(N2CCCCC2)ncn1
    -1.1	0.37
O=C(NCCC1=CCCCC1)C1CCCN(S(=O)(=O)c2ccc3[nH]c(=O)oc3c2)C1 (stereo unspecified)
    /	0.61
Cn1c(=O)c(=O)n(C)c2cc(N3CCCCC3)c(NC(=O)C3CC3)cc21
    /	-0.28
COCCn1c(SCc2ccccc2F)nnc1-c1c[nH]c2ccccc12
    0.3	/
CC[N+](CC)(CC)CC(=O)Nc1c(C)cccc1C
    -1.8	/

In another format: entries from further up.
Structure,CDC25B CDK2 inh,TAR Tat displ
CC1CCCCC1NC(=O)c1cc(S(=O)(=O)N2CCc3ccccc32)cn1C (stereo unspecified),1,0.95
CCS(=O)(=O)c1nc(S(=O)(=O)c2ccc(Cl)cc2)c(NCc2ccccn2)s1,-0.07,0.05

Next section
Results follow in this order: CDC25B CDK2 inh	TAR Tat displ
O=C1/C(=C/c2ccc(Cl)cc2)CCc2ccccc21
    -1.7	/
Cc1ccc(-c2c(Nc3ccc(C)c(Cl)c3)c(=O)c2=O)cc1
    /	-4.2
COc1ccc(Cn2cc(C(=O)c3ccc(OC)cc3)c(=O)c3cc(F)cc(F)c32)cc1
    -0.07	0.3
COc1cccc(-c2nc(SCc3cc(=O)n4[nH]cnc4n3)n[nH]2)c1
    /	1.5
O=C(Nc1nnc(COc2ccc(Br)cc2)s1)C12CC3CC(CC(C3)C1)C2
    -1.7	/
CN(C)CCNC(=O)c1ccc(N2CCSc3ccccc32)s1
    /	0.12
COc1cc(O)c(C(=O)/C=C/c2ccccc2)c(OC)c1
    /	0.74
C(=C\c1ccccc1)/CNCCCSc1nnnn1-c1ccccc1
    -1.2	-0.76
CN(C(=O)NCc1noc2ccccc12)c1ccccc1F
    /	-0.3
O=c1c2ccccc2nc2c3ccccc3ncn12
    -1.6	/
COc1ccc(Cl)cc1NC(=O)Nc1nnc(N(C)C2CCCCC2)s1
    -1.5	1.4
CC(=O)Nc1c2n(c3ccc(F)cc13)CC(C)(C(=O)NC1CCCCC1)N(CCC(C)C)C2=O (stereo unspecified)
    /	1.5
Cc1nnsc1C(=O)N1CCN(c2ccccn2)CC1
    1.8	/
O=C(NCCN1CCOCC1)C1CCN(S(=O)(=O)N2CCCCC2)CC1
    /	1.2
Cc1cc(C)nc(NCN2C(=O)c3ccccc3C2=O)c1
    -1.1	/
CC1=C(c2cccc(Cl)c2)S(=O)(=O)NC1=NC1CCCCC1C (stereo unspecified)
    -8.8	0
CCN(CC)CCn1c(NCc2ccc(N(C)C)cc2)nc2ccccc21
    -2.2	1.4
Cn1c(=O)c2c(-c3ccc(Br)cc3)n(CCCO)cc2n(C)c1=O
    -0.75	0.09

Screening data: PubChem BioAssay, Center for Chemical Genomics, University of Michigan
